Cruzain inh Det – qHTS Assay for Promiscuous and Specific Inhibitors of Cruzain (with detergent); Potency, µM, without a hit: max response, negative = inhibition, hits mostly inhibitors; AID 1478, 2009; purified cruzain, Z-FR-AMC fluorescence, 0.01% Triton; Cruzipain (Trypanosoma cruzi), P25779; actives 0.43% (n = 200,000); active = well fitted curve in the direction sought with a large enough effect; inconclusive = small, poorly fitted or top-dose-only effect, or another doubt; inactive = no such curve, though single readings can be large; an effect the other way counts as inactive or inconclusive;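 also: plate controls were neutral wells for no effect and buffer without enzyme for full effect; nearly all actives have a fitted effect of over 40% in size; top concentration of the series not given in the record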
Target sequence (P25779 123-467 limits assumed): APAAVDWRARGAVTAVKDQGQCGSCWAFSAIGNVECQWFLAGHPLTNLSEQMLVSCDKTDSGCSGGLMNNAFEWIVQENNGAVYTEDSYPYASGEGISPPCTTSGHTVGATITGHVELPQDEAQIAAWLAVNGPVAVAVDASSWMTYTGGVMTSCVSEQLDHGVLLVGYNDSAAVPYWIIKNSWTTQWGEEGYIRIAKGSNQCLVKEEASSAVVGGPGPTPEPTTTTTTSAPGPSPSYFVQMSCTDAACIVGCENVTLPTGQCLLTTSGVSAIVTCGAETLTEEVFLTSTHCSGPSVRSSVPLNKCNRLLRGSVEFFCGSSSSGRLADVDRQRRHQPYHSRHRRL
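Cruzain (1.5 nM) preincubated 15 min at RT with compound in 100 mM sodium acetate pH 5.5, 5 mM DTT, 0.01% Triton X-100. Reaction started with 2 uM Z-FR-AMC; AMC fluorescence (ex 360/em 450 nm) change over 60 s gave rate.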
Marburg entry inh – qHTS for inhibitors of binding or entry into cells for Marburg Virus. AID 540276, 2011. actives 1.8% (n = 300,000). Potency, µM (doses to about 37.8 µM), without a hit: at the top dose activity change, negative = inhibition, actives largely listed as inhibitors. Marburg virus pseudotyped entry inhibition, cell reporter; control for the full effect not named in the record; about a third of the inactives were read at about 46 µM; active = well fitted inhibition curve with a large enough effect; inconclusive = small, poorly fitted or top-dose-only effect, or effect the other way; inactive = flat fitted curve, though single readings scatter; tested in HEK293 cells; about a fifth of its hits are not listed in these tables; also: % is scaled to controls: 0 for no effect and ±100 for the full control effect; luciferase read-out
StopGo reporter – High Throughput Screening for Foot and Mouth Disease Virus Antivirals. actives 1.2% (n = 410,000). human cells with a luciferase reporter of 2A StopGo recoding; control for the full effect not named in the record. Potency, µM (titrated, usually from 57.9 µM), inactives show at the highest dose signal change, negative = less light; active = well fitted falling curve with a large enough effect; inconclusive = small, poorly fitted or top-dose-only effect; inactive = no such curve, though single readings can be large or run the other way; tested in HEK293T cells; also: % is scaled to controls: 0 for no effect and ±100 for the full control effect; nearly all actives have a fitted effect of over 45% in size; luciferase light after 4 h
RE007 growth inh – qHTS Assay for Inhibitors of the HIV-1 protein Vpr; S. pombe RE007 Vpr strain, BacTiter-Glo ATP luminescence, 24 h; control for the full effect not named in the record; AID 651644, 2012; Potency, µM (titrated, usually from 92.2 µM), inactives show at the top dose activity change, negative = less growth; actives 0.21% (n = 360,000); active = well fitted falling curve with a large enough effect; inconclusive = small, poorly fitted or top-dose-only effect; inactive = no such curve, though single readings can be large or run the other way;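 also: % is scaled to controls: 0 for no effect and ±100 for the full control effect; nearly all actives have a fitted effect of over 50% in size; the assay follows cell death caused by Vpr and the record does not say whether a fall means rescue or toxicity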
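Fission yeast strain RE007, carrying one chromosomally integrated HIV-1 vpr copy, was seeded at OD 0.01 in PMG+AL medium with 23 nL pinned compound. After 24 h at 30 °C and 99% humidity, viability was read by BacTiter-Glo luminescence.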
Cruzain inh noDet – qHTS Assay for Promiscuous and Specific Inhibitors of Cruzain (without detergent); actives 2.3% (n = 200,000); Cruzipain (Trypanosoma cruzi), P25779; AID 1476, 2009; Potency, µM, for the others: max response, negative = inhibition, most hits filed as inhibitors; purified cruzain, Z-FR-AMC fluorescence, no detergent; active = well fitted curve in the direction sought with a large enough effect; inconclusive = small, poorly fitted or top-dose-only effect, or another doubt; inactive = no such curve, though single readings can be large; an effect the other way counts as inactive or inconclusive;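 also: plate controls were enzyme without inhibitor for no effect and buffer without enzyme for full effect; nearly all actives have a fitted effect of over 40% in size; top concentration of the series not given in the record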
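Purified cruzain at 1.5 nM, pre-incubated 15 min with compound at room temperature in 100 mM sodium acetate pH 5.5, 5 mM DTT, 0.00005% Triton X-100. Reaction started with 2 uM Z-FR-AMC; AMC fluorescence increase over 60 s gives rate.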
NS1 function inh – qHTS Assay for Inhibitors of Influenza NS1 Protein Function; S. cerevisiae slowed by influenza A NS1, growth recovery by OD600; Potency, µM (doses to about 46.1 µM), inactives show top-dose activity, positive = more growth; actives 0.4% (n = 270,000); AID 2326, 2010; also: actives are rising curves; nearly all actives have a fitted effect of over 50% in size
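Recovery from NS1-induced slow growth read by OD600 in budding yeast switched to galactose assay medium (pH 6.0, -URA) at 1:100 dilution. Compound 23 nl per well; the matching strain lacking NS1 serves as control.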
Lassa entry inh – qHTS for Inhibitors of binding or entry into cells for Lassa Virus; Lassa virus pseudotype entry inhibition, cell reporter; control for the full effect not named in the record; Potency, µM (top dose mostly 37.9 µM), without a hit: top-dose activity change, negative = inhibition, most hits filed as inhibitors; actives 1.2% (n = 300,000); AID 540256, 2011; active means well fitted inhibition curve with a large enough effect; inconclusive means small, poorly fitted or top-dose-only effect, or effect the other way; inactive means flat fitted curve, though single readings scatter; tested in HEK293 cells; also: % is scaled to controls: 0 for no effect and ±100 for the full control effect; nearly all actives have a fitted effect of over 50% in size; luciferase read-out
SARS PLpro yeast – qHTS of Yeast-based Assay for SARS-CoV PLP; S. cerevisiae expressing SARS-CoV PLpro, growth rescue; control for the full effect not named in the record; Potency, µM (titrated, usually from 32.9 µM), without a hit: at the top dose activity, positive = growth rescue; actives 0.19% (n = 330,000); AID 485353, 2010; also: 0% is about no effect; nearly all actives have a fitted effect of over 55% in size; growth read by luminescence after 48 h
* marks the source's active call; other numbers are inactive results; ? = inconclusive; nt = not tested or not shown; & = joins results of further samples; [ ] = dose if it differs, or a comment. Unless noted, calls follow the shape of the dose curve; as a rule, active means well fitted rising curve with a large enough effect; inconclusive means small, poorly fitted or top-dose-only effect; inactive means no such curve, though single readings can be large or run the other way. Potency is read from the fitted curve at half-maximal effect.

SMILES	Cruzain inh Det	Marburg entry inh	StopGo reporter	RE007 growth inh	Cruzain inh noDet	NS1 function inh	Lassa entry inh	SARS PLpro yeast
CCc1ccc(N=C2NC(=O)/C(=C/c3cc(OC)c(OC)c(OC)c3)S2)cc1	nt	?	-21%	9%	nt	-2%	?	-1%
CN1C(=O)c2ccccc2Sc2ccc(NC(=O)N3CCN(c4ccccc4F)CC3)cc21	-8.4%	-29%[46.1 µM]	?	nt	?	nt	-9%[46.1 µM]	nt
O=C(O)CCn1c(SCCOc2ccccc2F)nc2ccccc21	nt	nt	0%	-5%	nt	-1%	nt	2%
C=CCn1c(CCC(=O)O)ccc1-c1ccccc1	-2.4%	-4%	nt	5%	2%	-46%	19%	-3%
CC(=O)Nc1cccc(NC(=O)CSc2ccc(-c3ccccn3)nn2)c1	nt	-23%	7%	-17%	nt	nt	?	?
O=C(CN1C(=O)c2cccc3cccc1c23)NCc1ccncc1	-0.7%	?	0%	5%	-16%	8%	-3%	2%
Nn1c(=O)[nH]c2c([nH]c3ccccc32)c1=O	nt	5%[46.1 µM]	-7%	-2%	nt	nt	-7%	-2%
COc1ccc(/C(N)=N/OC(=O)c2cccs2)cc1OC	nt	?	14%	0%	nt	2%	-28%	1%
COc1ccc(-c2nc3scc(CCNS(=O)(=O)c4cccs4)n3n2)cc1	1.1%	nt	6%	nt	21%	nt	-18%[46.1 µM]	nt
CCn1c(=O)cc(OCC(=O)N2CCN(C(=O)c3ccco3)CC2)c2ccccc21	2.1%	-2%	10%	20%	0%	2%	13%	4%
CN(C)CCCNC(=O)/C(=C/c1ccc(-c2ccc([N+](=O)[O-])cc2)o1)NC(=O)c1ccccc1	nt	nt	-27%	-6%	nt	-7%	nt	-1%
O=S(=O)(/N=C(/Nc1ccc(F)c(F)c1F)c1ccccc1)c1ccccc1	-0.1%	?	0%	6%	0%	2%	8%	0%
O=C(NNc1c(Cl)cccc1Cl)C1CCC1	nt	30%	3%	4%	nt	0%	1%	0%
COCCn1c(C)cc(C2=NNC(=Nc3ccccc3)SC2)c1C	-3.1%	-10%	-10%	15%	-21%	14%	?	4%
Cn1cc(CN2CCCC(CO)(Cc3ccccc3)C2)cn1 (stereo not given)	nt	2%[46.1 µM]	-2%	10%	nt	0%	-3%[46.1 µM]	1%
O=C(NNC(=S)Nc1cccc(Cl)c1)c1ccccc1OC(F)F	-0.1%	?	-10%	7%	3%	-37%	0%	-3%
O=C(CSc1nnc2ccccn12)Nc1ccccc1C(=O)NC1CC1	5.4%	-1%	2%	6%	3%	2%	3%	7%
O=C(Nc1nccs1)c1ccc(CSc2ccccc2)o1	nt	nt	2%	-3%	nt	-18%	nt	23%
COc1ccc(C(=O)N[C@H](C(=O)N2CCN(c3ccccc3F)CC2)C(C)C)cc1	nt	-17%[46.1 µM]	-24%	3%	nt	nt	-21%[46.1 µM]	-1%
Cc1cccc(CNC(=O)C2CCCN(S(=O)(=O)c3cn(C)cn3)C2)c1 (stereo not given)	1.4%	nt	-3%	nt	-8%	nt	5%[46.1 µM]	nt
CC(=O)N/N=c1\sc2ccccc2n1C	nt	15%[46.1 µM]	-13%	1%	nt	nt	8%	4%
CC(C)c1ccc2oc(-c3cc(N)ccc3O)nc2c1	-3.9%	-10%	?	2%	?	-84%	?	-34%
CCCC[C@@H]1CNC(=S)N1CCCC	nt	nt	19%	6%	nt	2%	nt	1%
Cc1cc(-n2c(C)cc(C(=O)COc3ccccc3[N+](=O)[O-])c2C)no1	nt	-6%[46.1 µM]	38%[activator]	-2%	nt	-4%	9%	-2%
CC1(c2cccc(Br)c2)NC(=O)N(CC(=O)Nc2cccnc2Cl)C1=O (stereo not given)	nt	?	-30%	6%	nt	5%	5%	29%
CC1Oc2ccccc2OC1C(=O)Nc1nccs1 (stereo not given)	nt	-4%[46.1 µM]	7%	-12%	nt	-8%	21%[46.1 µM]	1%
COc1ccc2[nH]c3c(NCCCOC(C)C)ncnc3c2c1	nt	?	2%	-8%	nt	0%	?	2%
O=C(COc1ccc(S(=O)(=O)N2CCOCC2)cc1)Nc1cccc([N+](=O)[O-])c1	nt	17%[46.1 µM]	-12%	-1%	nt	2%	?	1%
O=c1[nH]c(CN2CCN(S(=O)(=O)/C=C/c3ccccc3)CC2)nc2cc(Cl)ccc12	nt	?	-15%	18%	nt	1%	?	0%
CN(C)S(=O)(=O)c1ccc2nc(NC(=O)c3cccnc3)sc2c1	-8.4%	2%	33%[activator]	0%	-12%	4%	?	nt
CCOC(=O)C1CCCN1C(=O)c1ccc(OC)c(Br)c1 (stereo not given)	nt	?	-15%	5%	nt	4%	?	23%
O=C1NC(=S)NC(=O)C1=Cc1ccc(OCc2ccccc2)cc1	nt	nt	0%	-18%	nt	nt	-3%	nt
Cc1ccc(-c2nnc(SCC(=O)NC(=O)Nc3ccc(C)cc3C)n2N)cc1	-2.8%	8%	-13%	-2%	17%	13%	8%	-2%
CCc1ccc(-c2nc(CS(=O)CC(=O)NCCCN3CCOCC3)c(C)o2)cc1 (stereo not given)	nt	-10%[46.1 µM]	?	11%	nt	14%	16%[46.1 µM]	-2%
CCOc1ccc(S(=O)(=O)Nc2cccc(C(=O)NCC(C)(C)N3CCOCC3)c2)cc1	nt	?	-17%	5%	nt	nt	?	4%
COc1cccc(NC(=O)COC(=O)c2ccc3c(c2)OCO3)c1	nt	13%	17%	-2%	nt	nt	20%	-9%
Cc1nn(CC(=O)Nc2ccc(C(C)C)cc2)c(C)c1[N+](=O)[O-]	nt	nt	0%	-10%	nt	4%	nt	1%
O=C1/C(=C\c2ccccc2)CCc2c1[nH]c1ccccc21	-1.2%	16µM*	4%	9%	?	7%	?	1%
Cc1cc(C(=O)N/N=C/c2ccc(OCc3ccccc3)cc2)c(C)o1	nt	-1%[46.1 µM]	19%	-11%	nt	-7%	?	-10%
CC(C)Oc1ccc(C(=O)NC2=NCCS2)cc1	nt	8.9µM*	-24%	-1%	nt	nt	?	-1%
Cc1ccc(C(=O)NC(=S)Nc2cccc3c(C)cc(C)nc23)cc1	3.2%	?	12%	11%	?	21%	?	-2%
CC(=O)Nc1ccc(NC(=O)c2csnn2)cc1	-11%	4%[46.1 µM]	30%[activator]	nt	-11%	nt	20%[46.1 µM]	nt
Fc1ccc(-n2c(-c3ccc4ccccc4n3)n[nH]c2=S)cc1Cl	nt	nt	-19%	16%	nt	nt	-3%	0%
COc1ccc(C(=O)NN(C)c2nc(-c3ccccc3)nnc2C(F)(F)F)cc1	7.7%	8%	-24%	1%	12%	?	-10%	-3%
Cc1nn(C)c(C(=O)Nc2ccc3c(c2)OCO3)c1[N+](=O)[O-]	nt	nt	15%	-3%	nt	5%	nt	-6%
COc1ccc(CCNC(=O)CNS(=O)(=O)c2ccc(Cl)cc2)cc1	nt	-1%[46.1 µM]	10%	-6%	nt	nt	-14%	nt
COc1ccccc1N(CC(=O)NCCSCc1cccc(Cl)c1)S(C)(=O)=O	-5.6%	-14%&-24%[46.1 µM]	-1%&-14%	-6%	?	-2%	2%&-24%[46.1 µM]	-1%
CN(c1ccccc1C(=O)N1CCN(Cc2ccc3c(c2)OCO3)CC1)S(C)(=O)=O	nt	-4%[46.1 µM]	-17%	0%	nt	nt	0%	2%
C/C(=N/OC(=O)c1c(-c2c(F)cccc2Cl)noc1C)c1cnccn1	nt	10%[46.1 µM]	-18%	6%	nt	-3%	1%[46.1 µM]	1%
CCn1nnc(NC(=O)COc2cc(C)ccc2C(C)C)n1	-2.3%	-22%	-9%	17%	6%	-3%	2%	-14%
COc1ccc(-n2ncc(C(=O)N3CCc4ccccc4C3)c2C2CCN(C(=O)OC(C)(C)C)CC2)cc1	-0.9%	nt	-8%	nt	-16%	nt	?	nt
C=CCSc1ncc(CO)n1Cc1ccccc1	nt	0%[46.1 µM]	12%	2%	nt	7%	11%[46.1 µM]	0%
CCOC(=O)c1c(-c2ccccc2)nc2ccc(C)cn12	0.7%	-2%	-28%	?	4%	-178%	1%	-33%
O=C(CN1CCOCC1)Nc1ncc(Cc2cccc3ccccc23)s1	-3.4%	0%	nt	12%	?	-15%	-30%	-5%
Cc1ccnc(SCc2nc3ccccc3s2)n1	-3.6%	?	34%[activator]	-15%	7%	-48%	?	12%
COc1ccc(/C=C(\C#N)C(=O)NCC2CCCO2)cc1OC (stereo not given)	7.6%	-5%	7%	-15%	0%	-11%	0%	-7%
O=C(/C=C(\O)c1ccc(Cl)cc1)C(=O)NNC(=O)C(O)(c1ccccc1)c1ccccc1	-18%	?	?	17%	0%	17%	6%	2%
Cc1ncc(CN2CCC(CO)(Cc3ccccc3)CC2)s1	nt	nt	-18%	6%	nt	1%	nt	2%
O=C(O)c1cc(-c2ccccc2)on1	0.2%	16%	nt	-15%	1%	6%	1%	1%
O=C(NCc1nc2ccccc2[nH]1)c1ccccc1F	nt	0%[46.1 µM]	41%[activator]	-2%	nt	2%	?	1%
The listing continues.
SMILES	Cruzain inh Det	Marburg entry inh	StopGo reporter	RE007 growth inh	Cruzain inh noDet	NS1 function inh	Lassa entry inh	SARS PLpro yeast
O=C(CCCCn1c(=O)c2ccccc2n(Cc2cccc(Cl)c2)c1=O)NCc1ccc2c(c1)OCO2	-4.7%	-11%[46.1 µM]	-28%	nt	5%	nt	-7%[46.1 µM]	nt
O=C1CCC(C(=O)N2CCc3c(Cl)cccc3C2)CN1CCCN1CCOCC1 (stereo not given)	nt	7%	-16%	-4%	nt	4%	16%	-3%
Cc1ccc(-c2onc(C)c2C)cc1S(=O)(=O)NC1CCC(C)CC1 (stereo not given)	-7.4%	nt	19%	nt	-1%	nt	20%[46.1 µM]	nt
CCc1nnc(NC(=O)C(CC)CC)s1	nt	nt	30%	-6%	nt	5%	nt	0%
CCN1CCN(CCCNC(=O)C(=O)c2c(C)[nH]c3ccccc23)CC1	nt	5%[46.1 µM]	4%	20%	nt	nt	-3%	1%
O=C(Nc1ccc(O)cc1)/C(=C\C=C\c1ccccc1)NC(=O)c1ccccc1	nt	nt	-19%	-3%	nt	10%	nt	0%
COc1ccc(C(=O)NCC(=O)NCC2COc3ccccc3O2)cc1 (stereo not given)	-2.6%	3%	6%	-6%	0%	4%	3%	4%

High-throughput results (PubChem)
